High-throughput results deposited in PubChem by Fisher Drug Discovery Resource Center.
NPYLR7 ag: activates Aedes aegypti NPYLR7 receptor | HEK293T NPYLR7/Galpha15, GCaMP6s calcium fluorescence | activation, % at 10 µM | 270,000 compounds, 0.15% hits | AID 1259423; in the data active means activation above about 40%;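 further: 0% = vehicle and 100% = reference agonist at the receptor; some compounds past the cut are filed as inactive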
NPYLR7 ag max-min: also measured in NPYLR7 ag; calls as there; activation, %; measured here: Max-Min RFU normalised activation; some inactives read as strong as hits;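 span of the calcium signal over five minutes; 0% = vehicle and 100% = native peptide agonist; compound fluorescence can raise it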
* hit, by the source's call; & = joins results of further samples. Not all compounds are listed. The share of hits here may be higher or lower than overall.

SMILES	NPYLR7 ag	NPYLR7 ag max-min
O=C(NC1CCc2ccccc21)c1cc(COc2ccc3c(c2)OCO3)[nH]n1 (stereo not given)	2	-5
COc1ccc(CCNC(=O)c2c(C)noc2-c2ccccc2C)cc1OC	4	-2
Cc1ccc(C)c(COc2coc(CSc3nncn3C)cc2=O)c1	10	5
Cc1cccc(-c2ncc(CN3CCCN(C(=O)C4CCCO4)CC3)cn2)c1 (stereo not given)	2	-9
Cc1cc(C(=O)Nc2nc3c(C)ccc(C)c3s2)n(C(C)C)n1	-7	-10
COc1ccc(C(C2Sc3nc(C)nn3C2=O)N2CCN(c3ccccc3F)CC2)cc1OC (stereo not given)	2	-1
COc1cc(F)c(-c2nccn2Cc2cnn(C)c2)c(F)c1	6	2
Cc1noc(C)c1CN1CCN2C(C(=O)NCC3CC3)=COC2=NC1=O	8	7
CC1CN(C(=O)C(C)N2CCC(c3ccc(O)cc3)CC2)CC(C)O1 (stereo not given)	-4	-4
CCCCCCC(=O)Nc1c(-c2ccccc2F)nc2ccc(C)cn12	-3	0
c1ccc(N=C2CCCC2)nc1	21	15
O=C(c1cccc(N2C(=O)CCC2=O)c1)N(CCn1cccn1)c1nc2ccccc2s1	0	-1
COCC(=O)NC1CCN(c2ccccc2C(=O)NCc2cccc(C(F)(F)F)c2)CC1	-9	-1
N#Cc1cccc(-c2cnc3c(c2)CCN3Cc2nc3ccccc3s2)c1	22	15
c1c[nH]c(CN2CCC[C@H]2c2nc(-c3ccc(OC4CCCCC4)nc3)no2)n1	-10	-15

Entries above containing an NH in an aromatic ring, in the order listed:
SMILES	NPYLR7 ag	NPYLR7 ag max-min
O=C(NC1CCc2ccccc21)c1cc(COc2ccc3c(c2)OCO3)[nH]n1 (stereo not given)	2	-5
c1c[nH]c(CN2CCC[C@H]2c2nc(-c3ccc(OC4CCCCC4)nc3)no2)n1	-10	-15

(more compounds)
SMILES	NPYLR7 ag	NPYLR7 ag max-min
CCOC(=O)C1CCCCN1C(=O)CCC(=O)NC1CCCC1 (stereo not given)	1	-3
O=C(NCc1ccco1)NC1CC(=O)N(C2Cc3ccccc3C2)C1 (stereo not given)	3	0
O=C(CSc1nc(-c2ccccc2)cc(=O)[nH]1)Nc1oncc1-c1ccc(F)cc1	-3	-6
CC1C(=O)N(c2ccccc2Cl)CCN1C(=O)C1CC1 (stereo not given)	-11	-7
COC(=O)NNC(=S)NC(=O)C12CC3CC(CC(C3)C1)C2	31	27
COC(=O)c1ccc2ccn(CC(N)=O)c2c1	3	1
Cc1ccc(CN(C)C(=O)c2cc(COc3ccc4c(c3)OCO4)[nH]n2)o1	10	4
COc1ccccc1C(=O)Nc1n[nH]c(-c2ccc(F)cc2)n1	2	0
COC(=O)[C@@H]1C[C@@H](NC(=O)COc2ccc3c(c2)OCO3)CN1C	29	18
O=C(C=Cc1cccc(Br)c1)Oc1ccc2ccc(=O)oc2c1	3	6
CC1(c2cc3ccccc3o2)NC(=O)NC1=O (stereo not given)	10	5
OC(c1cccs1)c1nnc(Nc2cccc(Oc3ccccc3)c2)s1 (stereo not given)	1	1
CCC(=O)N1CCN=C1SCc1cc(C)ccc1C	2	0
COc1ccc(NC2CC(=O)N(c3ccc(I)cc3)C2=O)cc1 (stereo not given)	-10	-15
O=C1NC(=S)N/C1=C/c1ccc(-c2ccc([N+](=O)[O-])cc2Br)o1	-3	4
COCCC(=O)N1CCc2c([nH]c3ccccc23)C1C(C)(C)C (stereo not given)	3	0
O=C(O)c1cc(=O)c2cccc(O)c2[nH]1	3	1
Cc1occc1-c1nnc(SCC(=O)NCCOc2ccccc2)n1C	0	-3
Cc1ncc(-c2nccn2C(C)c2cnn(-c3ccccc3)c2)n1C (stereo not given)	12	13
CCN(CC)c1ccc(CN(Cc2ccc(F)cc2)C(=O)c2ccco2)c(OS(C)(=O)=O)c1	-13	-11
CCN(CC(=O)N1CCc2sccc2C1COc1ccc(C)cc1C)S(=O)(=O)c1ccc(C)cc1 (stereo not given)	-2	1
CN(C(=O)CSc1ncnc2sccc12)C1CCS(=O)(=O)C1 (stereo not given)	6	5
COC(=O)c1ccc2c(c1)CN(C(=O)Cc1ccc(F)c(F)c1)CC2	7	9
CCCCNC(=O)C1(C)CCCCN1C(=O)c1ccc(C(F)(F)F)nc1C (stereo not given)	0	-2
COCCCn1c(C)c(C)n2c3c(=O)n(Cc4ccc(Cl)cc4)c(=O)n(C)c3nc12	6	5
O=c1c2ncccc2n(Cc2cccc(C(F)(F)F)c2)c(=O)n1CCc1ccccc1	-3	-1
COc1ccc(C=C2SC(=O)N(CCNC(=O)c3ccc(C)o3)C2=O)cc1OC	4	-1
O=C(NC[C@@H]1CCNC[C@H]1O)C1(c2ccc(Cl)cc2)CCCCC1	2	-5
O=C(NC1CCN(c2ccccc2C(=O)N2CCCC2)CC1)c1cccc(Br)c1	-3	2
Cc1occc1C(=O)NNC(=O)C=Cc1ccccc1	10	14
CSCC[C@H](NC(C)=O)c1n[nH]c(CC(C)C)n1	0	-3
Cc1ccccc1-n1nc(C(C)(C)C)cc1NC(=O)CN(Cc1ccccc1)C(=O)CCl	-10	-4
c1ccc(C2=Nc3ncnn3C(c3ccccc3)C2)cc1 (stereo not given)	1	-3
CCc1nnc2n1N=C(c1cc(F)ccc1OC)CS2	7	5
CCOc1cccc(CN2CCCn3cccc3C2c2ccccc2C(F)(F)F)c1 (stereo not given)	23	23
CC(=O)Nc1ccc(S(=O)(=O)Oc2ccc(Cl)cc2CN(Cc2ccco2)C(=O)c2cccc(F)c2)cc1	3	7
O=C1CCCN1CCCN1CC(C(=O)N2CCCCCC2)CCC1=O (stereo not given)	1	-6
Oc1ccc2ccccc2c1N=Nc1ccc2c(c1)OCCO2	0	2
COC(=O)c1cc(OC(=O)C23CC4CC(CC(C4)C2)C3)n(C)n1	8	6
O=C(O)Cn1c[n+](CC(=O)O)c2ccccc21	2&0	3&-1
CCC(CC)C(CNc1ccc(S(=O)(=O)N2CCOCC2)cc1[N+](=O)[O-])N1CCCC1 (stereo not given)	15	13
COc1ccc(-c2cn[nH]c2-c2ccc(OCCN3CCC(C(N)=O)CC3)cc2O)cc1OC	1	-3
COc1ccc(S(=O)(=O)NCCCN2CCOCC2)cc1	5	3
Cc1ccc(-c2nc(N3CCN(C(=O)C4CCC4)CC3)c3ccc(Cl)cc3n2)cc1	4	12
Cc1cc(C)cc(NC(=O)c2c(C)cc(=O)n(-c3ccccc3)c2C)c1	-3	-3

Random excerpt: 3 compounds from above, in no set order.
SMILES	NPYLR7 ag	NPYLR7 ag max-min
COc1ccc(-c2cn[nH]c2-c2ccc(OCCN3CCC(C(N)=O)CC3)cc2O)cc1OC	1	-3
Cc1cc(C)cc(NC(=O)c2c(C)cc(=O)n(-c3ccccc3)c2C)c1	-3	-3
O=C(O)Cn1c[n+](CC(=O)O)c2ccccc21	2&0	3&-1

Returning to the listing, repeating the three entries before the break.
SMILES	NPYLR7 ag	NPYLR7 ag max-min
COc1ccc(S(=O)(=O)NCCCN2CCOCC2)cc1	5	3
Cc1ccc(-c2nc(N3CCN(C(=O)C4CCC4)CC3)c3ccc(Cl)cc3n2)cc1	4	12
Cc1cc(C)cc(NC(=O)c2c(C)cc(=O)n(-c3ccccc3)c2C)c1	-3	-3
CN1CCN(c2ccc(NC(=O)c3cccs3)c(C(F)(F)F)c2)CC1	0	0
CNc1cncc(-c2cccc(OC)c2)n1	2	0
C=CCOc1ccccc1C(=O)N1CCN2CCN(C)CC2C1 (stereo not given)	9	5
CC(=O)Oc1ccc(-n2c(C)cc(C=C3C(=O)N(C)C(=O)N(C)C3=O)c2C)cc1	-8	-10
Cc1ccc(CN(CCc2ccccc2)C(=O)CN(CCN2CCOCC2)C(=O)c2cccc(Br)c2)o1	5	8
O=C(Cc1cccs1)N1CCC(C(O)c2ccc(F)cc2)CC1 (stereo not given)	4	4
CNS(=O)(=O)c1ccc(C(=O)N(C)C2CCCCC2)o1	0	-2
Cc1nn(-c2ccccc2)c2nc(C3CCOCC3)nc(N3CCN(C(=O)COc4ccccc4)CC3)c12	7	9
Cc1ccccc1C(=O)N1CCCC(OCc2ccc(Br)cc2)C1 (stereo not given)	-5	-4
Cc1cccc(CNC(=O)c2sc(=O)n(Cc3ccccc3C)c2C)c1	13	8
CC(NC(=O)C(C)N1CCCN(S(=O)(=O)c2ccc(F)cc2)CC1)c1ccccc1 (stereo not given)	1	1
COc1cc(NC2CCN(S(=O)(=O)c3ccccc3)CC2)ncn1	13	10
CCN(CC)c1ncccc1CNC(=O)c1ccc(C)s1	9	-2
CCCCCn1c(=O)c2c(nc3n(-c4ccccc4N)c(C)cn23)n(C)c1=O	6	9
Cc1ccc(C(N)=NOC(=O)CCCc2ccccc2)cc1	4	2
O=C(NCc1ccc(Cl)nc1)c1csc([C@@H]2C[C@H](O)[C@@H](CO)O2)n1	1	-1
O=C1c2ccccc2CN1C12CC3CC(CC(C3)C1)C2	7	4
COCCN(Cc1nc(C(=O)N2CCN(Cc3ccccc3)CC2)cs1)C(=O)Nc1ccc(Cl)c(Cl)c1	-7	1
O=C1CC(c2ccc3c(c2)OCCO3)c2cnn(Cc3ccncc3)c2N1 (stereo not given)	16	4
COc1ccc(-n2nc(C(C)(C)C)cc2NC(=O)Cc2ccccc2Br)cc1	14	9
Cc1ccc(S(=O)(=O)C(C#N)=Cc2cccc(C(F)(F)F)c2)cc1	0	6
COCC(=O)Nc1ccc(-n2nc(OCC(C)C)nc2-c2ccc(OC)cc2)cc1	-13	-8
CN1C(=O)/C(=C\c2ccc3c(c2)OCO3)SC1=S	4	-2
COc1cccc(CN2CCC(C(=O)NC(c3ccc(F)cc3)c3ncccc3C)CC2)c1 (stereo not given)	8	13
CCc1ccc(C2CC(=O)Nc3nn(Cc4ccccc4)c(C)c32)o1 (stereo not given)	-5	-6
CC(C(=O)NC1CCCC1)S(=O)Cc1ccc(Cl)cc1 (stereo not given)	14	8
C=CCOCC(O)CN(Cc1ccco1)Cc1c(CC)nn(-c2ccc(F)cc2)c1Oc1ccccc1 (stereo not given)	11	9
O=C1C(=O)N(CCN2CCOCC2)C(c2ccc(Cl)cc2)C1=C(O)c1ccc(F)cc1 (stereo not given)	13	17
CC(C)Oc1cccc(C(=O)C2CCCN(C3CCN(Cc4ccccn4)CC3)C2)c1 (stereo not given)	8	-5
Fc1ccc(NC2c3ccccc3-c3ccccc32)cc1	0	-2
COc1cccc(C(=O)N2C(C(=O)O)COC23CCN(C(=O)c2cccc(Cl)c2)CC3)c1 (stereo not given)	12	16
CN(CCc1ccccc1)C1(C(=O)NCc2cnn(C)c2)Cc2ccccc2C1	-4	-8
CC(=O)Cn1c(=O)c2c(nc3oc(-c4ccc(Cl)cc4)cn32)n(C)c1=O	-5	-9
CC(=O)Nc1ccc(-c2ccccc2CN2CCOCC2)c2cccnc12	11	7
CCOC(=O)CCC(=O)N1CCN(CC(OCc2ccc(C(=O)OC)cc2)c2ccc(Cl)cc2)CC1 (stereo not given)	-1	5
O=c1c2cc3c(=O)n(CCN4CCOCC4)ccc3nc2ccn1CCO	1	5
CSc1ncccc1C(=O)N1C2CCC(O)(CC2)C1CN1CCOCC1 (stereo not given)	14	24
COC(=O)Cc1cc(=O)[nH]c(=S)[nH]1	1	-2
Cc1nc(-c2ccc(CNC(=O)C3CCC3)o2)cs1	3	3
O=C(Nc1ccc(Cc2nc(CCc3ccccc3)n[nH]2)cc1)C1CC1	2	0
Cc1cc(NC(=O)C2CCCN2C(=O)C23CC4CC(CC(C4)C2)C3)ccc1N1CCCC1=O (stereo not given)	1	-1
O=C1NCC(COc2cccc3ccccc23)O1 (stereo not given)	6	5
CN1CCc2c(sc(NC(=O)C(C)(C)C)c2-c2nc3ccccc3s2)C1	22	23
Cc1ccc(CCC(=O)N(CC(F)(F)F)c2ccccn2)cc1	0	41
CCc1nc2c(OCC=C(C)C)cccn2c1N(C)C(=O)c1cccc(OC)c1	7	-4
Cc1nc(-c2cccc(C(F)(F)F)c2)nc(N2CCN(C(=O)NCc3ccccc3)CC2)c1Cc1ccccc1	-4	4
COc1ccc(C)cc1-n1c(C(C)N(CCc2ccccc2)C(=O)c2cccc(Br)c2)nc2ccccc2c1=O (stereo not given)	-3	6
Cc1cc(C)n(CCSc2ccc3[nH]c(=O)oc3c2)n1	13	13
CCc1cc(=O)[nH]c2nnc(SCC#N)n12	-3	-5
CCOc1ccc(Nc2nc(Nc3cccc(C(C)=O)c3)nc(C)c2[N+](=O)[O-])cc1	-12	-13
CC(C)NC(=O)c1cccc2c1CCCN2C(=O)c1ccc(C#N)cc1	3	1
CC(C)(C)CC(C)(C)Nc1c(-c2ccc(C(C)(C)C)cc2)nc2ccccn12	-6	-4
C#CCOCC(O)CN(Cc1cccc(Cl)c1)CC1CC(c2ccc(C)cc2)=NO1 (stereo not given)	-2	2
C#Cc1ccc(-c2c(-c3ccccc3)ncn2CCC(=O)OC)cc1	-8	-17
NS(=O)(=O)c1cccc(NC(=O)c2ccc3c(c2)CCC3)c1	2	1
Cc1nc(N2CCCC2)ncc1-c1cc(=O)[nH]c(N2CCc3ccccc3C2)n1	3	-3
CC(NCc1ccco1)c1nnc(-c2ccc(F)cc2)o1 (stereo not given)	4	-1
O=C1CCCN1C(=O)CSc1n[nH]c(/C=C/c2ccc(F)cc2)n1	6	4

Single records, as listed above. Order of screens: NPYLR7 ag, NPYLR7 ag max-min
CC(NCc1ccco1)c1nnc(-c2ccc(F)cc2)o1 (stereo not given) across the screens: 4, -1
CC(C)(C)CC(C)(C)Nc1c(-c2ccc(C(C)(C)C)cc2)nc2ccccn12 across the screens: -6, -4
NS(=O)(=O)c1cccc(NC(=O)c2ccc3c(c2)CCC3)c1 across the screens: 2, 1
COc1ccc(C)cc1-n1c(C(C)N(CCc2ccccc2)C(=O)c2cccc(Br)c2)nc2ccccc2c1=O (stereo not given) across the screens: -3, 6
